From PubChem
VDR inh – vitamin D3 receptor (human) inhibition | P11473 | VDR-SRC2-3 peptide fluorescence polarization, 2 h | Potency, µM, for inactives: max response, negative = inhibition, hits mostly inhibitors | 400,000 tested, 0.93% active | AID 504847; active = well fitted inhibition curve with a large enough effect; inconclusive = small, poorly fitted or top-dose-only effect, or another doubt; inactive = no such curve, though single readings can be large or run the other way; note: series mostly up to about 120 µM
Target sequence (P11473 whole entry, looked up): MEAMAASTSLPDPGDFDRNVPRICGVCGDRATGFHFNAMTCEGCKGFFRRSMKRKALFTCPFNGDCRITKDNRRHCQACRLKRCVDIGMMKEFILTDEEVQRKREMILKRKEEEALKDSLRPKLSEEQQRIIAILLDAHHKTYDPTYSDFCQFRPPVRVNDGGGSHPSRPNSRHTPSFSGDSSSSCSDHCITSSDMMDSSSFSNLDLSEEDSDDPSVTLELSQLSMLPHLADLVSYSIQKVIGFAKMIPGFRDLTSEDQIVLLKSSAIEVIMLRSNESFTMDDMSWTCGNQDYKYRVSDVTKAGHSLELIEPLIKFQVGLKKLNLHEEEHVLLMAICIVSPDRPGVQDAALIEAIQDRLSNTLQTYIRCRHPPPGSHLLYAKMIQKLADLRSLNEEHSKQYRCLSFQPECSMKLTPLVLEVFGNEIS
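Fluorescence polarization assay of small-molecule disruption of VDR binding to coregulator peptide SRC2-3. Compounds and controls pin-transferred, then read after 2 h incubation at ambient room temperature.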
* hit, by the source's call; & = joins results of further samples. % is set by controls: 0 for no effect and ±100 for the full control effect; potency is the fitted concentration of half-maximal effect.

How did O=C(/C=C/Nc1ccc(OC(F)(F)F)cc1)C(F)(F)F do in these assays?
VDR inh: 4%

How did CCOC(=O)c1oc2ccc(S(=O)(=O)n3nc(-c4ccc(OC)cc4)cc3N)cc2c1C do in these assays?
VDR inh: -5%

Results for O=C(Oc1ccccc1Cl)c1cc(-c2ccc3c(c2)OCCO3)on1 ?
VDR inh: -19%

How did Cc1cc(C)cc(NC(=O)c2cc(S(=O)(=O)N3CCC(C)CC3)cn2C)c1 do in these assays?
VDR inh: -3%

What do the screens show for `O=Cc1c(-c2ccccc2)cc2oc3ccccc3cc1-2`?
VDR inh: 16%

How did Cc1ccc(SC(C)C(=O)Nc2ccc(S(=O)(=O)N3CCOCC3)cc2)cc1 (configuration not stated) do in these assays?
VDR inh: -3%

Results for Cc1c2cnn(CC(=O)NCCCN3CCCCC3)c(=O)c2c(C)n1Cc1ccccc1 ?
VDR inh: -12%

Results for CC(=O)Nc1ccc(C)c([N+](=O)[O-])c1 ?
VDR inh: 17%

Results for Clc1ccc(CSc2nnc(-c3ccc4c(c3)OCO4)o2)cc1 ?
VDR inh: 1%

What do the screens show for `O=C(COC(=O)/C=C/c1cccc(F)c1)NC(=O)NC1CCCC1`?
VDR inh: 9%

Results for Cc1nn(CC(=O)NNC(=S)Nc2ccccc2)c(C)c1[N+](=O)[O-] ?
VDR inh: 0%

What do the screens show for `COc1ccc(OCCCC(=O)OC(C)C(=O)Nc2cccc(C(C)=O)c2)cc1` (configuration not stated)?
VDR inh: -3%

How did Cc1cc(NC(=O)CSc2n[nH]c(=O)[nH]c2=O)ccc1Br do in these assays?
VDR inh: 1%

Results for COC(=O)c1ccccc1NC(=O)CN(C)S(=O)(=O)c1ccc(OC)c(C)c1 ?
VDR inh: 24%

Results for COc1nc(N(C)C)nc(-n2nnc(C(C)=O)c2C)n1 ?
VDR inh: 7%

Overlap with the part before: 2 compounds, followed by the next part.
Results for COC(=O)c1ccccc1NC(=O)CN(C)S(=O)(=O)c1ccc(OC)c(C)c1 ?
VDR inh: 24%

Results for COc1nc(N(C)C)nc(-n2nnc(C(C)=O)c2C)n1 ?
VDR inh: 7%

How did CCC(C(=O)NCCc1cc(OC)ccc1OC)n1nc(C)c2sc3ccccc3c2c1=O (configuration not stated) do in these assays?
VDR inh: 1%

What do the screens show for `O=C(CCc1nc2sc3c(c2c(=O)[nH]1)CCCC3)N1CCN(c2ccccc2)CC1`?
VDR inh: -6%

How did Cc1ccc(-n2c3nc(=O)[nH]c(=O)c-3cc3c(Cl)cccc32)cc1 do in these assays?
VDR inh: -19%

Results for COc1ccc(CN(CCC#N)C(=S)NC(=O)c2ccccc2)cc1 ?
VDR inh: -7%

How did Cc1ccc(Cl)cc1NC(=S)N/N=C/c1cccc2ccccc12 do in these assays?
VDR inh: 20%

Results for C#CCNc1nc(C(C)C)nc2c1nnn2Cc1ccccc1F ?
VDR inh: -6%

Results for COc1ccc(C2(C)NC(=O)N(CC(=O)NC3(C#N)CCCCC3)C2=O)cc1 (configuration not stated) ?
VDR inh: 3%

How did CCOc1ccc(CNC(=O)C2Cc3cc(S(=O)(=O)N4CCCCC4)ccc3N2C(C)=O)cc1 (configuration not stated) do in these assays?
VDR inh: 4%

How did C#CCOCCOCCOCCNc1nc(N2CCOCC2)nc(N2CCN(C(=O)[C@H](Cc3ccc(O)cc3)n3cc([C@@H](N)CC(C)C)nn3)CC2)n1 do in these assays?
VDR inh: 11%

Results for Nc1ccc2nc3n(c(=O)c2c1)CCC3 ?
VDR inh: -12%

What do the screens show for `CS(=O)(=O)N(CCc1ccccc1)CC(=O)Nc1ccc(OCc2ccccc2)cc1`?
VDR inh: 5%

Results for CC(CC(=O)Nc1ccc(C(N)=O)cc1)c1ccccc1 (configuration not stated) ?
VDR inh: -21%

Results for CN1CCN(C2(CNC(=O)c3ccc(C(C)(C)C)cc3)CCCCC2)CC1 ?
VDR inh: 22%

What do the screens show for `COc1ccc(C)cc1S(=O)(=O)N1CCC(C(=O)N2CCN(C)CC2)CC1`?
VDR inh: -23%

What do the screens show for `COc1cc(NC(=O)COC(=O)/C=C/c2c(C)nn(C3CCS(=O)(=O)C3)c2Cl)cc(OC)c1OC` (configuration not stated)?
VDR inh: 30%

Results for O=C(Cc1ccc(NC(=O)C2CCN(C(=O)C3CCCC3)CC2)cc1)Nc1cccc(C(=O)N2CCCCC2)c1 ?
VDR inh: 3%

Results for COc1ccc(/C=C/CN2CCC(Oc3ccc(C(=O)N4CCCCC4)cc3)CC2)cc1 ?
VDR inh: -15%

How did O=C(CN1C(=O)COc2ccccc21)N(CCCN1CCOCC1)CC1CC=CCC1 (configuration not stated) do in these assays?
VDR inh: -2%

What do the screens show for `Cc1nc2ccccc2c(=O)n1-c1ccc(F)c(NS(=O)(=O)c2ccccc2F)c1`?
VDR inh: -22%

What do the screens show for `c1ccc2[nH]c(N3CCOCC3)nc2c1`?
VDR inh: 2%

How did Cc1ccc(S(=O)(=O)NCCC(=O)NC2CCCCC2)cc1 do in these assays?
VDR inh: -5%

Results for COc1cccc(NC(=O)COC(=O)Cc2ccccc2[N+](=O)[O-])c1 ?
VDR inh: -12%

What do the screens show for `Clc1ccc(SCCCCN2CCOCC2)cc1`?
VDR inh: -9%

What do the screens show for `O=C(CSc1nn(-c2ccc(F)cc2)c(=S)s1)NC(=O)NCc1ccco1`?
VDR inh: 6%

How did CCC1(c2ccccc2)NC(=O)N(CC(=O)NNC(=O)c2ccc(F)cc2)C1=O (configuration not stated) do in these assays?
VDR inh: -30%

How did CC1Sc2ccc(S(=O)(=O)CCC(=O)N3CCCC3)cc2NC1=O (configuration not stated) do in these assays?
VDR inh: -8%

Results for COCCn1c(N)c(C(=O)c2cccc(S(=O)(=O)N3CCCCCC3)c2)c(=O)[nH]c1=O ?
VDR inh: -16%

How did CC(C)CN(C(=O)CN1C(=O)NC(c2ccccc2)(c2ccccc2)C1=O)C1CCS(=O)(=O)C1 (configuration not stated) do in these assays?
VDR inh: 12%

How did CCNC(=S)NCc1ccc(OC)c(OC)c1 do in these assays?
VDR inh: 1%

Results for COc1ccc(C2=NOC(Cn3nc(-c4ccccc4)cc3C(=O)NCc3cccc(Br)c3)C2)cc1 (configuration not stated) ?
VDR inh: -9%

How did Cc1ccc(S(=O)(=O)c2nc(-c3ccco3)oc2SCc2ccc(F)cc2)cc1 do in these assays?
VDR inh: 4%

Results for COc1ccc2c(=O)c(C(=O)O)c(-c3ccc4c(c3)OCO4)n(C)c2c1 ?
VDR inh: 8%

How did Cc1csc(NC(=O)c2ccc(C)c([N+](=O)[O-])c2)n1 do in these assays?
VDR inh: -9%

Results for Cc1ccc(C(NC(=O)Nc2ccccn2)C(Cl)(Cl)Cl)cc1F (configuration not stated) ?
VDR inh: -5%

Results for Cc1ccc(S(=O)(=O)N2CCN(C(=O)n3ccnc3)CC2)cc1 ?
VDR inh: 1%

What do the screens show for `CCOc1ccccc1NC(=O)C1CCN(S(=O)(=O)c2cccc3nonc23)CC1`?
VDR inh: 13%

What do the screens show for `O=C(Cn1nc(-c2ccccc2)nc1-c1ccccc1)OC1CCCCC1`?
VDR inh: 11%

How did CC(C)CC(O)(c1ccccc1)C(CN1CCOCC1)c1ccccc1 (configuration not stated) do in these assays?
VDR inh: 11%

Results for C[C@H](CO)N1C[C@H](C)[C@@H](CN(C)Cc2ccc(Cl)c(Cl)c2)Oc2c(NC(=O)C3CCOCC3)cccc2C1=O ?
VDR inh: -4%

Results for O=C1CCC(C(=O)Nc2ccc(Cl)cc2)N1 (configuration not stated) ?
VDR inh: -11%

How did COc1ccccc1C(=O)NC(CCSC)C(=O)N1CCN(C(C)=O)CC1 (configuration not stated) do in these assays?
VDR inh: -1%

How did O=C(NC(=S)Nc1cccc2ncccc12)c1ccco1 do in these assays?
VDR inh: -14%

What do the screens show for `CCSCCOC(=O)C1=C(C)NC(=O)NC1c1ccccc1` (configuration not stated)?
VDR inh: -1%

What do the screens show for `COc1ccc(NC(=O)C2CCN(Cc3cnn(-c4ccccc4)c3-n3cccc3)CC2)cc1OC`?
VDR inh: -13%

Results for CCOCCN1CCN(C2c3ccccc3CSc3ccccc32)CC1 (configuration not stated) ?
VDR inh: 9%

How did COc1ccc2[nH]cc(CCNc3cc(-c4ccoc4)ncn3)c2c1 do in these assays?
VDR inh: inconclusive

How did Cc1nn(-c2ccccc2)nc1CNS(C)(=O)=O do in these assays?
VDR inh: 8%

What do the screens show for `Cc1ccccc1-c1nc2c3ccccc3nc(=S)n2[nH]1`?
VDR inh: 13%

What do the screens show for `O=C(O)c1ccc(NC(CSCc2ccccc2F)C(=O)O)c([N+](=O)[O-])c1` (configuration not stated)?
VDR inh: -14%

Results for O=C(COc1ccccc1F)NCC(c1ccc(F)cc1)N1CCOCC1 (configuration not stated) ?
VDR inh: -21%

How did CN(CC(=O)Nc1ccccc1Br)C(=O)c1cc(S(=O)(=O)N(C)C)ccc1N1CCCC1 do in these assays?
VDR inh: 3%

What do the screens show for `COc1ccc(-c2cc(=O)c3c(O)cc(O)c(-c4cc(-c5cc(=O)c6c(O)cc(OC)cc6o5)ccc4OC)c3o2)cc1`?
VDR inh: -4%

What do the screens show for `CCC(C)c1ccccc1OCC(=O)NN1C(=O)c2ccccc2C1=O` (configuration not stated)?
VDR inh: -12%

Results for O=C(CN1C(=O)NC(c2ccccc2)(c2ccccc2)C1=O)NCc1ccco1 ?
VDR inh: 0%

What do the screens show for `CCCNC(=O)CCc1c(C)nc2nc(CNC(=O)c3ccccc3)nn2c1C`?
VDR inh: 0%

Results for C=CCN(CC=C)Cc1c(O)ccc2c(=O)c(-c3ccccc3)coc12 ?
VDR inh: -1%

How did BrC(=C\c1ccccc1)/C=N/n1cnnc1 do in these assays?
VDR inh: -5%

What do the screens show for `CCOC(=O)CCn1nc(C)c2c(C)n(-c3ccccc3)nc2c1=O`?
VDR inh: 3%

What do the screens show for `COC(=O)COc1ccc(S(=O)(=O)NCc2ccco2)cc1`?
VDR inh: -2%

What do the screens show for `CCCCCSc1nnc2c(n1)OC(CC)Nc1ccc(Br)cc1-2` (configuration not stated)?
VDR inh: -18%

What do the screens show for `CCN(CC(=O)Nc1cc(Cl)ccc1C)C(=O)Cn1c(=O)cnc2ccccc21`?
VDR inh: -5%

Results for C[n+]1c2n(c3ccccc31)N=C(c1ccc(Cl)cc1)CS2 ?
VDR inh: inconclusive

What do the screens show for `O=C(O)c1sc2ncccc2c1OCc1ccccc1`?
VDR inh: -10%

How did O=C(COc1ccccc1[N+](=O)[O-])N/N=C/c1ccc(O)c([N+](=O)[O-])c1 do in these assays?
VDR inh: 13%

How did Cn1nccc1-c1cc(Cl)cc(Cl)c1O do in these assays?
VDR inh: 20%

How did Cc1ccnc(SCc2cc(=O)c(OC(=O)c3ccc(Cl)c([N+](=O)[O-])c3)co2)n1 do in these assays?
VDR inh: -17%

Results for CCCCNC(=O)C1CCCN(S(=O)(=O)CC)C1 (configuration not stated) ?
VDR inh: -2%

Results for Cc1cc(C)cc(-n2ccn(CC(=O)NCCc3ccccc3)c(=O)c2=O)c1 ?
VDR inh: 6%&-4%

What do the screens show for `CC(C)C[C@@H](CN)NC(=O)c1nc[nH]c1C(=O)N[C@@H](CC(C)C)C(=O)CNC[C@H](C)NC(=O)c1nc[nH]c1C(=O)N[C@@H](C)C(=O)O`?
VDR inh: -11%

What do the screens show for `COc1ccc(OC)c(NC(=O)Cn2c(=O)n(-c3cccc(C)c3)c(=O)c3c2c2cc(C)ccc2n3C)c1`?
VDR inh: 2%

How did COc1ccc(Nc2ncnc3c2cnn3Cc2ccccc2)cc1 do in these assays?
VDR inh: -7%

How did CC(=O)c1ccc(OC(=O)c2ccc(-n3nc(C)cc3C)cc2)cc1 do in these assays?
VDR inh: 10%

Results for N/C(=N\O)c1ccc(NC(=O)c2cccs2)cc1 ?
VDR inh: -2%

How did O=C(NCc1ccc(Cl)cc1)C(=O)c1cn(CC(=O)N2CCOCC2)c2ccccc12 do in these assays?
VDR inh: 9%

Gathered by group, those above with a COOH group.
Results for COc1ccc2c(=O)c(C(=O)O)c(-c3ccc4c(c3)OCO4)n(C)c2c1 ?
VDR inh: 8%

What do the screens show for `O=C(O)c1ccc(NC(CSCc2ccccc2F)C(=O)O)c([N+](=O)[O-])c1` (configuration not stated)?
VDR inh: -14%

What do the screens show for `O=C(O)c1sc2ncccc2c1OCc1ccccc1`?
VDR inh: -10%

What do the screens show for `CC(C)C[C@@H](CN)NC(=O)c1nc[nH]c1C(=O)N[C@@H](CC(C)C)C(=O)CNC[C@H](C)NC(=O)c1nc[nH]c1C(=O)N[C@@H](C)C(=O)O`?
VDR inh: -11%

Gathered by group: the entries above containing a cyano group.
Results for COc1ccc(CN(CCC#N)C(=S)NC(=O)c2ccccc2)cc1 ?
VDR inh: -7%

Results for COc1ccc(C2(C)NC(=O)N(CC(=O)NC3(C#N)CCCCC3)C2=O)cc1 (configuration not stated) ?
VDR inh: 3%

These rows are one share of the data; the hit share may differ from the screen's.
